# miR-21 FLuc – qHTS Assay for Modulators of miRNAs and/orActivators of miR-21; HeLa miR-21 FLuc reporter, luciferase, 48 h; Potency, µM (series often up to 38.3 µM), for inactives: at the highest dose reporter change, positive = more light; 340,000 tested, under 10 active; AID 2288, 2010; active = well fitted rising curve with a large enough effect; inconclusive = small, poorly fitted or top-dose-only effect; inactive = no such curve, though single readings can be large or run the other way;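 note: % of control where 0% means no effect; miR-21 action dims this reporter so a rising signal means less miR-21 action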
#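 Luminescence from a firefly luciferase reporter carrying a miR-21 binding site downstream, stably expressed under a CMV promoter in HeLa cells that make miR-21 endogenously, reports miRNA modulation after 48 h compound exposure up to approximately 40uM final.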
# Rango release inh – qHTS Assay for Inhibitors of RanGTP induced Rango (Ran-regulated importin-beta cargo) - Importin beta complex dissociation. Biochemical FRET Rango-importin beta, RanGTP-induced dissociation. Potency, µM (highest dose often 46.1 µM), for inactives: at the highest dose activity change, negative = inhibition. Snurportin-1 (Homo sapiens) + GTP-binding nuclear protein Ran (Homo sapiens) + Importin …. AID 540253, 2011. 340,000 compounds, 0.071% hits; active means falling FRET ratio curve, often poorly fitted, with flat reads before Ran was added; inconclusive means other falling curves, or compound fluorescence or quenching; inactive means flat or rising ratio curve;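 note: potency is the fitted concentration of half-maximal effect; % of control where 0% means no effect; nearly all actives have a fitted effect of over 45% in size; -100% = wells without RanGTP and RCC1; the record marks most hits as doubtful in a second field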
#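 Quantitative HTS using a FRET biosensor: 0.1 uM Rango, 0.25 uM importin beta, 0.6 uM Ran, 2 mM GTP, 0.2 uM RCC1 final, PBS with DTT, Tween-20 and BSA. Post-read taken 45 min after Ran addition.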
# GLA inh pH 4.5 – qHTS Assay for Inhibitors of Human alpha-Galactosidase at pH 4.5; purified enzyme, 4-MU-alpha-Gal fluorescence, pH 4.5; activity change, negative = inhibition, % at 105 µM; 230,000 tested, under 10 active; Alpha-galactosidase A (Homo sapiens), P06280; inconclusive = small, poorly fitted or top-dose-only inhibition, or a rising curve; inactive = flat fitted curve, though single readings scatter; no compound was filed as active;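 note: 0% = full activity with enzyme and -100% = basal without enzyme; dose as in the result columns while the protocol names 77 µM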
# Rango-impB inh – qHTS Assay for Inhibitors of Rango (Ran-regulated importin-beta cargo) - Importin beta complex formation. Rango CFP/YFP FRET sensor + importin beta, 45 min. Potency, µM (series often up to 92.2 µM), inactives show at the top dose inhibition of complex formation. 340,000 compounds, 0.031% hits. AID 540263, 2011; active = rising FRET ratio curve, often small or poorly fitted; inconclusive = mostly compound fluorescence or quenching in the first reads; inactive = flat curves in all reads;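 note: potency is the fitted concentration of half-maximal effect; 0% = DMSO wells and 100% = buffer wells lacking importin beta; nearly all actives have a fitted effect of over 15% in size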
# Target sequence (Q14974 whole entry, looked up): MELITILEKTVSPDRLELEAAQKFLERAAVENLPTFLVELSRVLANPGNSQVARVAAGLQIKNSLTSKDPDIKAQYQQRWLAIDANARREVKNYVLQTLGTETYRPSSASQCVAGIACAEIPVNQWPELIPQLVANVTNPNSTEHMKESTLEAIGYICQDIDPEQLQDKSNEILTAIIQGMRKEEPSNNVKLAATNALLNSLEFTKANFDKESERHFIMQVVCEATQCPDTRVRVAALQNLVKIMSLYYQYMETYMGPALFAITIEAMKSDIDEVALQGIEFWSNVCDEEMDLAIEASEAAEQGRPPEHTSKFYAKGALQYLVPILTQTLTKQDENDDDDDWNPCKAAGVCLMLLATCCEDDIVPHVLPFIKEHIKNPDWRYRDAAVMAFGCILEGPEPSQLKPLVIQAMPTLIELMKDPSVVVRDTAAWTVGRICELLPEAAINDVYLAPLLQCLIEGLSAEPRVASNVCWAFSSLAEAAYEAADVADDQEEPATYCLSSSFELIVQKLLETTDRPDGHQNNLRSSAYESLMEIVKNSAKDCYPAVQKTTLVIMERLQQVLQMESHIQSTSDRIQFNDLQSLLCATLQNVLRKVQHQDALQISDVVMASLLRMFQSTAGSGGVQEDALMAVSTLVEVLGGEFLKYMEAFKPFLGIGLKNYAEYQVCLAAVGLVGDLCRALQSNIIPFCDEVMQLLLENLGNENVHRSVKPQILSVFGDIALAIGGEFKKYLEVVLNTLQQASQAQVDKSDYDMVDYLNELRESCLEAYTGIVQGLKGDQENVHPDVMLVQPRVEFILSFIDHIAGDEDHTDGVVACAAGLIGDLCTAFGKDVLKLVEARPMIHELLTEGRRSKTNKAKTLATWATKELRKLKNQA
#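 FRET biosensor Rango (snurportin 1 IBB between N-terminal EYFP and C-terminal Cerulean), 50 nM in PBS/1 mM DTT/0.02% Tween-20/0.1% BSA, preincubated 5 min RT with compound; 0.125 microM importin beta added, 45 min RT, CFP/YFP FRET ratio read.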
# Starred values were filed as active, the others as inactive; ? = inconclusive; nt = not tested or not shown; [ ] = another dose, or the depositor's remark. The list is partial (hit frequency here may not be typical).
smiles,miR-21 FLuc,Rango release inh,GLA inh pH 4.5,Rango-impB inh
COC(=O)c1cc(C#N)c(N2CCOCC2)nc1C,-7.6%,1.0%,-0.3,1.0%
Cc1cc(C)nc(NS(=O)(=O)c2ccc(NC(=O)Cc3ccc(F)cc3)cc2)n1,-2.4%,0.4%,nt,0.3%
C/C(N)=C(/C#N)C(=O)CSc1nc2ccccc2c(=O)n1CCCO,-1.9%,8.7%,-2.2,3.4%
C/C(=N\NC(=S)Nc1ccccc1C)c1ccc(O)cc1,-19.6%,4.0%,0.4,5.4%
O=C(CCCSc1nc2ccccc2[nH]1)NC1=NCCS1,-3.7%,-1.0%,-2.1,4.2%
Cc1ccc(NC(=O)C(C)NS(=O)(=O)c2ccc(F)cc2)cc1C (stereo unspecified),-1.7%,5.8%,4.4,-2.9%
COc1cccc(C2=NNC(=NCc3ccccc3)SC2)c1,-23.1%,4.2%,8.6,3.5%
COCCCNC(=O)/C=C1\Sc2ccccc2N(Cc2ccccc2F)C1=O,-56.7%,-29.4%,11.8,?
COc1cccc(-c2nc(NCC3CCCO3)c3ccccc3n2)c1O (stereo unspecified),16.1%,-2.9%,-5.5,8.7%
O=C1c2ccccc2C(=O)c2c1ccc1c(=O)n(-c3ccccc3)[nH]c21,-1.7%,3.0%,1.6,8.8%
CCN(C(=O)COC(=O)/C=C/c1c(C)nn(Cc2ccc(C)cc2)c1C)C1CCS(=O)(=O)C1 (stereo unspecified),-0.9%,-0.5%,-28.0[21.1 µM],-0.7%
CC(=O)CC1(O)C(=O)N(CN2CCN(c3ccccc3)CC2)c2ccccc21 (stereo unspecified),-2.6%,4.8%,1.3,1.8%
CCN(CC)C(=O)CSc1nnc(-c2cc(OC)cc(OC)c2)o1,-19.6%,0.3%,2.5,2.4%
COc1ccc(CCNC(=O)COc2ccc(S(=O)(=O)NC(C)C)cc2Cl)cc1OC,-13.6%,1.2%,-1.5,2.5%
Cc1ccc2[nH]c(=O)c(COC(=O)C3CCCO3)cc2c1 (stereo unspecified),-1.5%,-11.0%,0.7,0.3%
Cc1nc(-c2cc(C#N)c(Sc3ccc(Cl)cc3Cl)nc2C)cs1,-1.8%,-2.4%,-7.7,?
COC(=O)C1=C(C)NC(C)=C(C(=O)OC)C1/C=C/c1ccccc1,-3.9%,-1.0%,-0.1,-0.3%
NC(=O)C1CCN(C(=O)c2cccc(S(=O)(=O)N3CCCC3)c2)CC1,nt,8.8%,nt,1.4%
Nc1nc(-c2ccc(Cl)cc2)c(S(=O)(=O)c2ccccc2)s1,9.2%,-10.6%,-25.8,-4.0%
COc1cc(C)nc(Oc2ccc(OCc3ccccc3)nn2)n1,-4.8%,-15.7%,-3.3,4.1%
O=C(NCCN1CCOCC1)c1c(O)nc2ccccn2c1=O,-1.2%,12.3%,nt,?
COc1ccc(S(=O)(=O)N2CCN(C(=O)c3cc(-c4ccc(Br)cc4)n[nH]3)CC2)cc1OC,?,-14.3%,nt,2.0%
Cc1ccc(NC(=O)Cn2c([N+](=O)[O-])cnc2C)cc1,5.6%,-5.3%,-3.9,-0.6%
N#C/C(=C/c1ccc([N+](=O)[O-])cc1)C(=O)Nc1ccccc1O,-19.2%,4.3%,2.5,5.1%
Fc1ccccc1-c1ccc(/C=N/Nc2nc3ccccc3[nH]2)o1,-19.1%,?,-2.9,?
COC(=O)C1=C(C)N2C(=O)CSC2=NC1c1ccc2c(c1)OCO2 (stereo unspecified),-2.4%,-8.8%,0.8,?
O=C(Nc1ccccc1NC(=O)c1c(F)cccc1F)c1c(F)cccc1F,-3.3%,6.9%,nt,-0.1%
CCOc1ccc(C2/C(=C(/O)c3ccc4c(c3)CC(C)O4)C(=O)C(=O)N2CC2CCCO2)cc1 (stereo unspecified),0.1%,1.5%,nt,5.4%
CN1CCN(c2ccc(NC(=O)c3ccc(Cl)cc3Cl)cc2)CC1,-34.5%,-11.4%,nt,3.1%
Cc1nc(NC(=O)CN2CCN(c3cccc(Cl)c3)CC2)sc1C(=O)N(C)C,-1.0%,-7.8%,nt,-2.3%
Cc1sc2ncnc(SCC(=O)N3CCOCC3)c2c1C,nt,-17.4%,nt,0.0%
Cc1cn(C2OC(COC(=O)c3ccccc3)C(O)C2Cl)c(=O)[nH]c1=O (stereo unspecified),-0.1%,-17.3%,6.1,0.0%
COCCNC(=S)N1CCC(C(=O)c2ccc3c(c2)OCCO3)CC1,-38.9%,-3.2%,10.8,0.2%
COc1ccc(Br)cc1C1NC(=O)NC(C)=C1C(=O)N(C)C (stereo unspecified),-0.8%,-6.9%,0.4,-2.3%
Cc1nnc(SCC(=O)Nc2cccc(C(F)(F)F)c2)[nH]c1=O,0.7%,0.6%,-2.3,0.5%
COc1ccc(/C=N/Nc2cc(C)nc(-n3nc(C)cc3C)n2)cc1,27.6%,-5.4%,?,1.8%
Cc1cc(NC(=O)c2ccc(S(=O)(=O)N(C)CC3CCCO3)cc2)no1 (stereo unspecified),0.2%,13.5%,1.9,-1.7%
COC(=O)c1cc(-c2ccc(S(=O)(=O)N3CCCCC3)cc2)c(C(F)(F)F)s1,-1.0%,5.2%,-15.3,-1.9%
CCNC(=O)C12CCC(C)(C(=O)C1Br)C2(C)C (stereo unspecified),0.9%,12.6%,-9.0,2.9%
COc1ccnc(Oc2ccccc2)c1-c1ncn[nH]1,-5.2%,0.0%,5.7,-0.1%
COc1ccc(Cc2nnc(NC(=O)c3ccco3)s2)cc1OC,-6.4%,10.3%,2.5,-1.3%
CCOc1ccccc1N(CC(=O)NC1CCCC1)S(=O)(=O)c1ccc(C)cc1,2.6%,14.6%,nt,7.9%
CCCn1c(N)c(C(=O)CSc2ncn[nH]2)c(=O)n(C)c1=O,nt,0.7%,nt,-0.9%
Cc1cnc(NC(=O)c2ccc(-c3ccc([N+](=O)[O-])cc3)o2)s1,nt,0.6%,nt,-2.8%
NC(=O)Nc1ccc(Nc2ccccc2)cc1,-13.0%,4.9%,-12.8,1.4%
O=C1C=CC(=O)N1c1ccc2ccccc2c1,nt,-2.0%,nt,2.3%
CCOc1ccc(NS(=O)(=O)c2ccc(N)cc2)cc1,-13.2%,-13.0%,1.0,5.2%
O=C(NCc1ccc(Cl)cc1)c1cccc2c1C(=O)N(CC1CCCO1)C2 (stereo unspecified),9.6%,7.7%,nt,-3.5%
CC(C)=C1Cc2ccccc2C1=O,-1.9%,-9.1%,0.2,0.1%
CCC1CCCCN1C(=O)c1cc(-c2ccc(Cl)c(Cl)c2)on1 (stereo unspecified),-63.3%,-14.0%,8.6,2.1%
CN(Cc1cccc(C(F)(F)F)c1)Cc1nc(-c2cnccn2)no1,-6.7%,5.7%,3.9,9.5%
Cc1noc(C)c1COC(=O)c1ccc(-c2nc3ccccc3s2)s1,-21.1%,2.8%,4.3,-4.2%
CC1CCCC(C)N1C(=O)COC(=O)/C=C/c1ccc(Br)o1 (stereo unspecified),nt,-20.4%,nt,?
COc1ccc(Cl)cc1NC(=O)CN(C)C(=O)Cc1ccc2c(c1)CCC2,-5.2%,4.8%,nt,2.3%
COc1ccc(-c2nnc(SCCOc3cccc(C)c3)n2N)cc1,-11.9%,26.2%,-1.1,5.8%
CN(Cc1ccccc1)C(=O)Cn1cccc1C(=O)c1ccccc1,-1.9%,21.8%,-4.6,-0.9%
CC1CC(C)CN(C(=O)COc2cccnc2[N+](=O)[O-])C1 (stereo unspecified),nt,3.7%,nt,0.1%
COc1cccc(C(=O)NCCNC(=O)c2ccccn2)c1,-4.5%,5.2%,nt,-1.1%
CCOC(=O)c1c(-c2ccccc2)csc1NC(=S)NC(=O)c1ccccc1,-1.9%,2.8%,-20.5,2.1%
C/C(=N\NC(=O)c1cccc([N+](=O)[O-])c1)c1cccs1,-45.2%,31.7%,-1.4,2.4%

# Carrying on.
smiles,miR-21 FLuc,Rango release inh,GLA inh pH 4.5,Rango-impB inh
Cc1c(Br)c([N+](=O)[O-])nn1CC(=O)Nc1ccc(C(C)C)cc1,0.6%,-11.5%,-9.7,0.6%
CCCCNC(=O)Nc1cc(C)on1,-8.1%,-4.7%,-2.7,2.5%
COc1ccc(C(C#N)c2ccc(Cl)nn2)cc1 (stereo unspecified),-1.8%,3.6%,2.9,4.8%
CC1Sc2ccc(S(=O)(=O)CCC(=O)N3CCN(c4cccc(Cl)c4)CC3)cc2NC1=O (stereo unspecified),?,4.5%,nt,1.3%
Cc1cccnc1NC1(C(F)(F)F)N=C2SCCN2C1=O (stereo unspecified),0.0%,1.4%,1.1[21.1 µM],1.0%
Cc1ccc(-n2c(=S)[nH]c3c(oc4ccccc43)c2=O)cc1C,-23.6%,1.4%,4.2,-0.1%
COc1ccccc1C(=O)NC(=O)CSc1nnc(C)s1,-5.2%,-13.0%,nt,-0.3%
COc1ccccc1N1CCN(C(=O)CNC(=O)c2cn(-c3ccccc3OC)c(=O)c3ccccc23)CC1,-5.4%,0.3%,-3.7,5.4%
Cc1nc(N2CCN(C)CC2)c2c3c(sc2n1)CCCC3,0.1%,14.8%,nt,-0.3%
COC(=O)CN1C(=S)N(c2ccc(F)cc2)C(=O)C1CC(=O)Nc1ccc(OC)cc1 (stereo unspecified),6.3%,7.2%,-3.2,1.6%
CCN1C(=O)C(CC(=O)Nc2ccc(OC)cc2)N(CCCN2CCN(c3ccc(F)cc3)CC2)C1=S (stereo unspecified),26.2%,-5.7%,-11.8,-1.5%
CC1=C(C(=O)Nc2ccc(C(=O)NCCC(C)C)cc2)SCCO1,-1.6%,8.5%,nt,-0.4%
Cc1ccccc1-c1nc(S(=O)(=O)c2ccc(Br)cc2)c(NCc2cccnc2)o1,18.3%,11.8%,-4.9,4.1%
COC(=O)CSc1nnc([C@H](CC(C)C)NC(=O)OC(C)(C)C)o1,0.6%,-0.2%,1.0,-5.6%
COc1ccc(CCn2c(C)cc(C(=O)CSc3nnnn3-c3ccccc3)c2C)cc1OC,0.1%,-9.1%,-0.5,5.1%
O=C(COc1ccccc1[N+](=O)[O-])Nc1ccc2oc(=O)ccc2c1,-0.9%,-4.7%,nt,-0.9%
CCOC(=O)c1c(CN2CCOCC2)n(-c2ccccc2)c2cc(Br)c(O)cc12,16.2%,1.0%,5.4,-3.7%
CCN(CC)C(=O)Cn1cc(C(=O)C(=O)NCCc2c[nH]c3ccccc23)c2ccccc21,3.7%,-4.9%,nt,-3.5%
CCS(=O)(=O)N1CCN(S(=O)(=O)c2ccc(S(=O)(=O)NC3CC3)cc2)CC1,-0.7%,0.6%,nt,-2.4%
COCCNC(=O)C1CC(=O)N(C2CCCC2)C1 (stereo unspecified),-2.4%,-8.6%,12.0,0.5%
Cc1cc(C)cc(CSc2nnc(C)c(=O)[nH]2)c1,-6.2%,-10.5%,0.4,2.0%
O=C(/C=C/Nc1ccccc1C(=O)O)c1cccs1,-54.3%,?,2.4,?
COc1ccc(N/C(C)=C2/C(=O)C(=O)N(CCO)C2c2ccc(Br)cc2)cc1 (stereo unspecified),-16.6%,-5.4%,-0.7,-0.5%
N/C(=N\OC(=O)c1ccc(Br)cc1)c1cccc([N+](=O)[O-])c1,-38.2%,5.3%,nt,0.7%
CCC(O)C1CCN(Cc2cn(Cc3ccccc3)nc2-c2cc3ccccc3o2)CC1 (stereo unspecified),17.1%,3.8%,-18.2,0.5%

# High-throughput results as filed in PubChem BioAssay.
